Screens from PubChem BioAssay.
ClpP mod: qHTS Assay for Activators of ClpP; AID 651965, 2013; actives 1.9% (n = 340,000); purified B. subtilis ClpP, FRET peptide cleavage, 20 min; ATP-dependent Clp protease proteolytic subunit (Bacillus subtilis (strain 168)), P80244; Potency, µM (titrated, usually from 57.5 µM), without a hit: at the highest dose activity change, negative = active; active = well fitted falling curve with a large enough effect; inconclusive = small, poorly fitted or top-dose-only effect; inactive = no such curve, though single readings can be large or run the other way; further: the source files actives as falling curves though it sought activators and does not explain the sign; nearly all actives have a fitted effect of over 65% in size; many hits overshoot -100%
Target sequence (P80244 whole entry, looked up): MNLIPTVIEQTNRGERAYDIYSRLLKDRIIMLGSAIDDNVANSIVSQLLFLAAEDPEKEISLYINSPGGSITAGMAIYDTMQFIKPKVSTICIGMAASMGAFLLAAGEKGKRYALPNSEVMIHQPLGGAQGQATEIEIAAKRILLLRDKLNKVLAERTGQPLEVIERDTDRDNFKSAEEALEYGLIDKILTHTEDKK
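Buffer: 100 mM Tris/HCl pH8, 100 mM KCl, 0.05% low protease BSA, 2.5% glycerol, 0.01% Tween-20. ClpP 10 microg/mL final; 20 min RT; delta FRET normalized to ADEP and DMSO controls.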
PINK1 modulator: modulators of PINK1 expression | actives 0.2% (n = 410,000) | PINK1 immunofluorescence, high-content cytometry, 24 h | Potency, µM (highest dose often 76.6 µM), without a hit: at the top dose activation (PINK1 increase), hits mostly activators; active = well fitted activation curve with a large enough effect; inconclusive = small, poorly fitted or top-dose-only effect; inactive = flat fitted curve, though single readings scatter; cell line not stated here;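 further: % of control where 0% means no effect; nearly all actives have a fitted effect of over 65% in size; a mitochondrial uncoupler was the plate control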
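A stable cell line was treated with compounds at 5 concentrations for 24 hours, with CCCP as control. PINK1 levels and mitochondrial localization were measured by immunofluorescence with mitochondrial, cell and nuclear markers after fixation, read by laser-scanning cytometry.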
The depositor's hits bear a star; ? = inconclusive. Potency means the concentration at half of the fitted maximal effect.

Order of results – ClpP mod, PINK1 modulator
O=S(=O)(Nc1cccc(-c2ccc(N3CCOCC3)nn2)c1)c1cc(C(F)(F)F)ccc1Cl
→ 0.6%, 0.9%
O=S1(=O)N[C@H](Cc2ccccc2)COc2cc(N3CCC[C@@H]3CO)ccc21
→ -8.4%, 5.8%
COc1cc(C(=O)NCC(c2ccc3c(c2)OCO3)N2CCOCC2)cc(OC)c1OC (stereo not given)
→ -3.1%, 1.3%
CCCCOc1ccc(C(=O)N(Cc2ccc(C(C)C)cc2)C2CCS(=O)(=O)C2)cc1 (stereo not given)
→ 2.0%, -0.1%
CCCN1CNc2c(c(=O)[nH]c(=S)n2CCc2ccc(Cl)cc2)C1
→ -3.1%, 0.3%
CCC(c1nnnn1-c1ccc2c(c1)OCCO2)N1CCN(c2ncccn2)CC1 (stereo not given)
→ 0.6%, 4.1%
CCn1cc(C(=O)NCCN(CC(C)C)CC(C)C)c(=O)c2cc(S(=O)(=O)N(C)C3CCCCC3)ccc21
→ 0.6%, 0.7%
COc1ccc2c(c1)c1nnc(SCCN3CCOCC3)nc1n2C
→ -2.2%, 0.9%
NC(=O)c1csc(C2OC(CO)C(O)C2O)n1 (stereo not given)
→ 0.7%, 2.2%
Cc1cc(-c2ccc(S(=O)(=O)Nc3ccc(Br)c(C)c3)s2)on1
→ 1.3%, ?
Cc1cccc(NC(=O)CSc2ncc(-c3ccccc3)[nH]2)c1C
→ -19.7%, 2.3%
Cc1ccc(-c2nnc3ccccc3c2C(=O)Nc2ccc(F)cc2)cc1
→ -2.9%, 13.3%
CSc1ncc(C(=O)Nc2ccccc2C(=O)c2ccccc2)c(C(F)(F)F)n1
→ -0.3%, ?
COc1ccc(-c2nc(CCNC(=O)c3cc(OC)c(OC)c(OC)c3)cs2)cc1
→ ?, 0.5%
Cc1ccc(Cl)cc1N(C)C(=O)c1cnc(N2CCOCC2)c2ccccc12
→ -5.5%, 1.4%
CC(=O)N1CCCc2cc(S(=O)(=O)N(C)CC(=O)Nc3cccc(Cl)c3C)ccc21
→ -2.9%, 0.4%
CCOC(=O)c1ccc(NC(=O)NCCOCCn2c(=O)oc3ccccc32)cc1
→ -1.1%, 1.0%
CN1CCc2nc3sc(C(=O)Nc4ccccc4C(F)(F)F)c(N)c3cc2C1
→ -15.4%, -0.1%
O=C(Cn1c(SCc2ccccc2F)nc2ccncc21)Nc1ccccc1C(F)(F)F
→ -23.8%, 7.9%
COc1ccc(OC)c(NC2=C(c3ccccc3)C(=O)c3ccccc32)c1
→ -17.9%, -0.2%

Record cards, as listed above.
Cc1cccc(NC(=O)CSc2ncc(-c3ccccc3)[nH]2)c1C as listed: ClpP mod = -19.7%; PINK1 modulator = 2.3%
COc1ccc(-c2nc(CCNC(=O)c3cc(OC)c(OC)c(OC)c3)cs2)cc1 as listed: ClpP mod = ?; PINK1 modulator = 0.5%

The listing continues:
Order of results – ClpP mod, PINK1 modulator
CCOc1ccc(CC(=O)Nc2c(C(=O)c3ccc(C)cc3)oc3ccccc23)cc1OCC
→ -4.1%, 13.3%
Cc1cc(CN2CCN(c3cccc(C)c3C)CC2)cs1
→ 0.8%, 12.6%
CCCSc1nc(-c2ccc(OC)cc2)cc(-c2ccccc2OC)c1C#N
→ 4.2%, 0.9%
CCOc1ccc(NCc2nc3ccccc3n2CCOc2ccc(C)cc2)cc1
→ -3.5%, 19.4%
CCCC(=O)N(c1ccc2oc3c(c2c1)CCCC3)S(=O)(=O)c1ccc(CC)cc1
→ -0.3%, 0.3%
CC(C)C[C@H]1CN(CCCC[C@@H]2CNC(=O)C(=O)N2CC2CCCCC2)C(=O)C(=O)N1CCc1ccccc1
→ 1.2%, 1.0%
O=C(COc1ccccc1)Nc1ccc(C(=O)OCc2cc(=O)n3nc(C4CC4)sc3n2)cc1
→ -1.0%, -0.3%
Fc1ccc(Nc2c(-c3ccccn3)nc3ccc(Cl)cn23)cc1
→ -1.8%, -0.9%
CS(=O)(=O)N(CC(=O)NCCSCc1ccccc1)c1cc(C(F)(F)F)ccc1Cl
→ -0.2%, 1.3%
Cc1nc(SCC(=O)Nc2ccccc2C)cc(-c2ccccc2)n1
→ -0.4%, 1.0%
Cc1c(C(=O)OCCOc2ccccc2)[nH]c2c1C(=O)CC(c1ccccc1)C2 (stereo not given)
→ 1.5%, 2.8%
CCOC(=O)c1c(NC(=O)c2cc(-c3cccc(OC)c3)on2)sc2c1CCCC2
→ -1.6%, -0.6%
CCc1ccccc1NC(=O)c1cn(C)c(=O)c2ccccc12
→ -11.2%, 1.5%
O=C(Cn1ncc2c3ccccc3n(Cc3ccc(Cl)cc3)c2c1=O)NCCC1=CCCCC1
→ -13.1%, 0.1%
Cc1ccc(Cl)cc1NC(=O)N1CCC2(CC1)Oc1ccccc1C(=O)N2Cc1ccccc1F
→ -1.7%, -0.8%
COc1ccccc1-c1sc2ccccc2c1-c1cnc(N2CCOCC2)nc1
→ ?, 0.2%
COc1ccccc1CNc1ccc(-c2nc(-c3ccco3)no2)cc1[N+](=O)[O-]
→ -1.2%, 0.3%
COc1cccc(N=C2SC(C(=O)Nc3cccc(Cl)c3)CC(=O)N2C)c1 (stereo not given)
→ -0.3%, 0.6%
CCOC(=O)c1ccc(NC(=O)CCn2c(=O)c3cccn3c3cccnc32)cc1
→ 12.9%, 0.0%
Cc1ccc(Cl)cc1N(C)C(=O)c1cc2ccc3cccnc3c2[nH]1
→ -2.9%, 13.6%
Cc1cccc(C)c1-n1ncc(C(=O)NCCCN2CCC(C)CC2)c1C1CCN(C(=O)OC(C)(C)C)CC1
→ 1.7%, 1.7%
CSc1ccc(CCNC(=O)Cn2ccc3cc(S(=O)(=O)N4CCCCCC4)ccc32)cc1
→ -5.5%, 12.7%
CCCCN(CC)C(=O)c1ccc2c(c1)NC(=O)c1ccccc1S2
→ -0.3%, -0.4%
Cc1ccc(N2CCn3c2nc2c3c(=O)n(Cc3cccc(Cl)c3)c(=O)n2C)cc1C
→ -6.5%, 0.7%
COc1cccc(CNC(=O)COC(=O)c2ccc(S(C)(=O)=O)c([N+](=O)[O-])c2)c1
→ 2.0%, -0.5%
COc1ccccc1NC(=O)CN1C(=O)C(c2ccc(F)cc2)=NC12CCCCC2
→ 1.1%, 0.1%
COc1ccc2oc(=O)c(-c3cn4c(n3)sc3cc(OC)ccc34)cc2c1
→ 0.8%, 2.5%
O=C1CCCC[C@@H](O)[C@H](O)C[C@H](c2ccccc2)O1
→ -0.4%, 0.5%
Cc1ccc(NC(=O)c2oc3ccc(S(=O)(=O)N4CCC5(CC4)OCCO5)cc3c2C)cc1Cl
→ -15.8%, -0.1%
Cc1ccc2oc(=O)n(CCNC(=O)Nc3ccccc3C)c2c1
→ 2.2%, 2.9%
O=C1N(Cc2cccc(C(F)(F)F)c2)c2ccccc2S(=O)(=O)N1c1cccc(Cl)c1
→ -4.2%, 0.4%
COc1ccc(OC)c(-c2cc(C(=O)Nc3cnn(Cc4ccc(Cl)cc4Cl)c3)no2)c1
→ 43.5%, 3.5%
O=C(NCCN1CCCCC1)c1ccc(Cn2c(SCc3cccc(F)c3)nc3cccnc32)cc1
→ ?, 2.4%
CCC(=O)N1c2ccccc2CC1C(=O)NCc1ccc(OC(C)C)cc1 (stereo not given)
→ 0.8%, 3.6%
Cc1cccn2c(=O)cc(COc3cccc(NC(=O)COc4ccc(F)cc4)c3)nc12
→ 4.8%, 0.8%
Cn1c(=O)n(CCc2ccccc2)c(=O)c2c1nc1n2CCN1c1ccc(Cl)cc1
→ -21.0%, 0.7%
Cc1ccc(-c2nn(-c3ccc(F)cc3)c3c2cnc2cc(F)c(F)cc23)cc1
→ -11.4%, 2.4%
CC(C)c1ccc(OCC(=O)NCCS(=O)(=O)N2CCN(c3ccc(F)cc3)CC2)cc1
→ -2.1%, -1.0%
CC(C)c1cnc2c(c1SCc1cccc(C(F)(F)F)c1)c(=O)n(C)c(=O)n2C
→ -9.6%, 1.1%
CC(C)COC(=O)/C(C#N)=C\c1ccc(-c2ccccc2Cl)o1
→ -0.4%, 1.0%
Cc1ccc(Sc2c(C)nn(C(=O)COc3ccccc3)c2C)cc1
→ 2.3%, 3.1%
Cc1ccc(C)c(S(=O)(=O)c2nnn3c2nc(NC(C)C)c2sccc23)c1
→ ?, -0.7%
COc1ccccc1N1CCN(c2ncnc3c2cnn3-c2ccc(C)cc2)CC1
→ 17.1%, 1.6%
Cc1ccc(NC(=O)CCS(=O)(=O)c2cc(Br)cc3c2N(C(=O)C2CC2)CC3)cc1
→ -2.7%, 0.2%
COc1ccccc1Nc1c2c(nc3ccc(NC(=O)c4ccc(N(C)C)cc4)cc13)CCCC2
→ -20.4%, 5.2%
CC(C)(O)C1=C[N+](=O)CC=C1
→ 1.5%, -0.2%
COc1ccccc1NC(=O)Cn1c(=O)n(Cc2ccccc2)c(=O)c2c1c1cc(C)ccc1n2C
→ 4.1%, 0.8%
CCOC(=O)c1cc(-c2ccccc2)n(CCCC(=O)Nc2cc(C)ccc2OC)c1C
→ -0.9%, -0.6%
Cn1c(-c2cccc(Br)c2)cnc1NCc1cccc(F)c1
→ 1.0%, 10.3%
CCC1CCCCN1S(=O)(=O)c1ccc(C(=O)Nc2sc3c(c2C(=O)NC)CCC3)cc1 (stereo not given)
→ -1.3%, -3.6%

New compounds follow:
Order of results – ClpP mod, PINK1 modulator
COC(=O)c1ccc(Nc2ncnc3c2nc2n3CCCC2)cc1
→ ?, ?
Cc1ccc(CSC2=Nc3ccccc3C3=NC(CCC(=O)NC4CCCCC4)C(=O)N23)cc1 (stereo not given)
→ -1.9%, 1.5%
CCOc1ccccc1NC(=O)CN1C(=O)COc2ccc(S(=O)(=O)NC3CCCC3)cc21
→ -3.8%, 1.3%
CCOC(=O)N1CCc2c(sc3c2c(=O)n(-c2ccc(Cl)cc2)c(=O)n3CC(=O)c2ccc(F)cc2)C1
→ -17.2%, 3.9%
Cc1cccc(Cn2c(=O)n(CCC(=O)NCc3ccc4c(c3)OCO4)c(=O)c3sccc32)c1
→ -0.3%, -0.5%
CCOC(=O)c1cccc(NC(=O)c2cc3ccccn3n2)c1
→ -2.8%, 1.5%
CCCCOc1ccc(C(=O)N(Cc2ccc(N(C)C)cc2)Cc2ccco2)cc1
→ -1.3%, -0.6%
O=C(CSc1nc(Nc2ccc(F)c(F)c2)c2ccccc2n1)c1ccc(Cl)cc1
→ -4.8%, -0.1%
CCN(CC)S(=O)(=O)c1ccc2c(c1)c(=O)c(C(=O)N1CCN(c3cccc(Cl)c3)CC1)cn2C
→ 0.5%, 2.1%
COCCCn1c(SCC(=O)NCc2ccccc2)nc2c(sc3ccccc32)c1=O
→ -3.1%, -1.5%
CCOc1ccc(-c2cc(C(=O)N3CCN(c4cccc(C(F)(F)F)c4)CC3)c3ccccc3n2)cc1
→ 4.2%, 9.4%
COc1ccc(CC(=O)NCC(c2cccs2)S(=O)(=O)c2ccc(F)c(C)c2)cc1 (stereo not given)
→ -3.0%, -0.4%
Cc1noc2ncnc(N3CCCC(C(=O)NC(C)C)C3)c12 (stereo not given)
→ -1.0%, 1.0%
Cc1ccc(C(=O)CC2(O)C(=O)N(Cc3ccccc3)c3ccccc32)c(C)c1 (stereo not given)
→ -0.8%, 1.6%
CCc1ccc(NC(=O)Cc2csc(COc3cccc(C)c3)n2)cc1
→ 0.7%, 3.3%
O=C(NC1CCCCC1)C1c2ccccc2OCC(=O)N1CCc1c[nH]c2ccccc12 (stereo not given)
→ -0.5%, -0.3%
O=C1NC[C@H](CCCCN2CCN(CC3CCCCC3)C(=O)C2=O)N(Cc2ccccc2)C1=O
→ -0.3%, -0.1%
CCN(CC)S(=O)(=O)c1ccc2nc(NC(=O)c3cccnc3)sc2c1
→ -2.6%, 1.2%
COc1cccc2sc(N(Cc3cccnc3)C(=O)c3ccco3)nc12
→ 3.8%, -9.1%
CC1=C(c2ccc(Cl)cc2)S(=O)(=O)NC1=NCCCN1CCN(c2cc(C)ccc2C)CC1
→ -1.3%, -0.8%

Reprinted from the part before: 2 compounds, followed by the next part.
Order of results – ClpP mod, PINK1 modulator
COc1cccc2sc(N(Cc3cccnc3)C(=O)c3ccco3)nc12
→ 3.8%, -9.1%
CC1=C(c2ccc(Cl)cc2)S(=O)(=O)NC1=NCCCN1CCN(c2cc(C)ccc2C)CC1
→ -1.3%, -0.8%
Cc1ccccc1C(=O)N(Cc1ccc(N(C)C)cc1)Cc1ccco1
→ -0.8%, 0.8%
Cc1ccc(C)c(NC(=O)c2cnc3sc(N4CCOCC4)nn3c2=O)c1
→ -0.4%, 2.2%
CCOC(=O)c1ccc(N2C(=O)c3n[nH]c(-c4ccco4)c3C2c2ccccc2OC)cc1 (stereo not given)
→ -15.1%, 1.4%
Cc1ccc(-n2c(=O)[nH]c3sc4c(c3c2=O)CCNC4)cc1C
→ 2.9%, 0.2%
CCOc1ccc(CNC(=O)c2cc3c(=O)n(Cc4cccs4)ccc3nc2C)cc1
→ 4.3%, 1.7%
CCc1ccccc1NC(=O)c1nc2nc(C)cc(C(F)F)n2n1
→ 1.8%, 0.8%
CC(NC(=O)CN1C(=O)COc2ccc(S(=O)(=O)N3CCCCCC3)cc21)c1ccccc1 (stereo not given)
→ -1.5%, 1.6%

A portion of the library; the hit share may differ from the screen's.
